VACV mCherry inh: inhibitors of vaccinia virus infection (mCherry reporter signal) | hit rate 0.63% among 310,000 | AID 720579 | Vaccinia virus mCherry reporter infection, fluorescence; about a quarter of the inactives have no number | Potency, µM (doses to about 36.5 µM), for the others: top-dose activity change, negative = inhibition, usual class: inhibitors; active = well fitted inhibition curve with a large enough effect; inconclusive = small, poorly fitted or top-dose-only effect; inactive = no such curve, though single readings can be large or run the other way; tested in A549 cells; further: nearly all actives have a fitted effect of over 35% in size; inactives centre near -10
VACV Venus inh: inhibitors of vaccinia virus (Venus reporter); Vaccinia virus Venus reporter expression, fluorescence; Potency, µM (highest dose often 36.5 µM), without a hit: top-dose activity change, negative = inhibition, hits mostly inhibitors; hit rate 0.46% among 330,000; active means well fitted inhibition curve with a large enough effect; inconclusive means small, poorly fitted or top-dose-only effect; inactive means no such curve, though single readings can be large or run the other way; tested in A549 cells; further: nearly all actives have a fitted effect of over 30% in size; inactives centre near -10
* = called active by the depositor; i = inactive; ? = inconclusive; . = no result given; [ ] = remark or other dose. On the % scale 0 is the no-effect control and ±100 the full control effect; potency means the concentration at half of the fitted maximal effect.

SMILES	VACV mCherry inh	VACV Venus inh
C[C@@H]1CN([C@@H](C)CO)C(=O)c2cc(NC(=O)Nc3cccc4ccccc34)ccc2O[C@@H](C)CCCCO[C@H]1CN(C)C(=O)c1ccccc1	-13%	-26%
O=S(=O)(c1ccc2ccccc2c1)N1CCN(C(=S)Nc2ccc(F)c(Cl)c2)CC1	?	?
Cc1oc(-c2ccc(C(=O)Nc3cc(F)ccc3F)cc2)nc1COc1ccccc1	-20%	-27%
CCN(CC(=O)Nc1ccccc1C(F)(F)F)C(=O)c1ccccc1Cc1ccccc1	i	-15%
COc1ccc(C(=O)C(=NN)c2ccccc2)cc1	-15%	-2%
Cc1cccc(NC(=O)c2ccc(N(C)C3CCCCC3)c([N+](=O)[O-])c2)n1	7%	-9%
COc1ccccc1N1CCN(c2ncnc3sc(C)c(-c4ccccc4)c23)CC1	i	-5%
CCCC1(c2ccsc2)NC(=O)NC1=O (stereo not given)	-15%	-5%
Cn1cccc1/C=C1\SC(=S)N(NC(=O)c2ccc(Cl)cc2)C1=O	i	2%
CC(C)(C)C1CCC(=NNc2ccc(S(N)(=O)=O)cc2[N+](=O)[O-])CC1 (stereo not given)	-10%	-26%
CC(Oc1ccc(Br)cc1)C(=O)NCC(C)(C)N1CCOCC1 (stereo not given)	i	-2%
CCCCN(CCCC)CCCNC(=O)Cn1cc2c(n1)-c1c(oc(C(=O)N3CCCC3)c1C)CC2	-14%	-8%
N#CC1=C(N)Oc2cc3c(cc2C1c1ccc(Cl)cc1)OCO3 (stereo not given)	-19%	-15%
O=c1[nH]c(=O)n(Cc2ccccc2)c(O)c1C=NCCN1CCNCC1	-2%	-3%
CN(C)S(=O)(=O)c1cccc(C(=O)N=C2N=C3C=CC(Cl)=CN3Cc3ccccc32)c1	13%	-4%
Cc1ccc(S(=O)(=O)N2[C@@H](c3ccc(F)cc3)C(C(=O)O)=CC[C@H]2c2ccc(Cl)cc2)cc1	i	-19%
N#C/C(=C/c1cccs1)c1nc2ccccc2[nH]1	-13%	-17%
COc1ccc(S(=O)(=O)N2CCCCCC2)cc1NC(C)C(=O)Nc1ccc(NC(C)=O)cc1 (stereo not given)	-22%	-11%
CCOc1ccc2nc(NC(=O)C3=NNC(=O)CC3)sc2c1	-5%	-12%
CCNC(=S)Nc1cc(OCC)c(N2CCOCC2)cc1OCC	-4%	-5%
Nc1nc(-c2ccco2)nn1C(=O)c1ccccc1	i	-11%
CCOC(=O)c1c(NC(=O)COC(=O)c2ccc(C)s2)sc2c1CC(C)(C)NC2(C)C	i	-16%
O=C(COc1ccc(Cl)cc1)NNC(=O)c1ccccc1C(=O)O	i	-3%
COc1cccc(NC(=O)C(c2ccccc2)N2CCN(c3ccccn3)CC2)c1 (stereo not given)	0%	-4%
Cc1oc2cc3oc(=O)c(CCC(=O)NCCCN4CCOCC4)c(C)c3cc2c1C	-11%	-6%

New compounds follow
SMILES	VACV mCherry inh	VACV Venus inh
OCCNC(=S)Nc1ccc2c(c1)OCCO2	i	-7%
CN(Cc1cn(Cc2ccc(F)cc2)nn1)C1CN(Cc2cn(Cc3ccc(F)cc3)nn2)S(=O)(=O)C1 (stereo not given)	-1%	4%
CCN(CC)C(=O)Cn1cc(S(=O)(=O)CC(=O)NCc2ccc(C)cc2)c2ccccc21	-15%	-12%
CC(=O)c1ccc(NC(=O)CN2CCN(S(=O)(=O)c3ccc4c(c3)OCCO4)CC2)cc1	i	-20%
Cn1cnc2c(cnn2C)c1=N	-19%	3%
CC(=O)C1=C(O)C(=O)N(c2ccccn2)C1c1ccccc1[N+](=O)[O-] (stereo not given)	i	-8%
O=C(CCC1CCCCC1)Nc1c[nH]c(=O)[nH]c1=O	i	-15%
Cc1ccc(NC(=S)NC2CCCC2)c(C)c1	-15%	-10%
CC1CCN(S(=O)(=O)c2ccc3c(c2)CCC(=O)N3CC(=O)Nc2cccc(C#N)c2)CC1	-5%[7.34 µM]	-5%[7.34 µM]
CCCCn1c(SCC(=O)c2ccccc2)nc2sc3c(c2c1=O)CCCC3	-2%	9%
C=C(C)Cn1c(SCC(=O)Nc2cc(C)ccc2C)nc2sc3c(c2c1=O)CCCC3	-2%	-7%
CC(=O)c1ccc(N2CCN(c3ncnc4c3c(-c3ccccc3)cn4-c3cccc(C)c3)CC2)cc1	-4%	6%
O=C(COc1ccccc1C(=O)Nc1ccccc1)Nc1ccccc1F	-9%	-12%
Cc1oc2c(c1C(=O)O)C(=O)c1ccccc1C2=O	?	?
O=C(COC(=O)C(Cc1c[nH]c2ccccc12)NC(=O)c1ccc(Cl)cc1)c1ccc(Cl)cc1 (stereo not given)	-10%	-7%
CC1CCC(NC(=O)c2ccc(CS(=O)(=O)c3c(Cl)cccc3Cl)o2)CC1 (stereo not given)	-3%	-4%
Cc1occc1-c1nnc(SCC(=O)c2ccc(Cl)cc2)n1C	-13%	-7%
Cc1c(C=O)c2cc(OCc3ccccc3)ccc2n1C	-10%	-15%
N#Cc1nc(COc2cccc(Cl)c2)oc1NCc1ccncc1	-19%	-9%
Cc1ccc(NC2CCCN(C(=O)c3cnc4ccccn4c3=O)C2)cc1C (stereo not given)	-5%[7.34 µM]	5%[7.34 µM]
Cc1ccc(CNC(=O)COC(=O)C2CCC2)cc1	-8%	-3%
O=C(Nc1ccc(Cl)cc1)c1cc2c(-c3ccccc3)nn(-c3ccccc3)c2s1	-7%	-8%
O=C(COc1ccccc1)N/N=C/c1cc2c(cc1[N+](=O)[O-])OCO2	i	-10%
COc1ccc(CN2CCN(Cc3cccc(Oc4ccccc4)c3)CC2)c(OC)c1OC	i	-10%
CCOc1ccc(NC(C)C(=O)N/N=C/c2cccs2)cc1 (stereo not given)	-7%	-4%

Some of the entries above in another layout.
Compound: CC(=O)C1=C(O)C(=O)N(c2ccccn2)C1c1ccccc1[N+](=O)[O-] (stereo not given)
  VACV mCherry inh: i; VACV Venus inh: -8%
Compound: O=C(CCC1CCCCC1)Nc1c[nH]c(=O)[nH]c1=O
  VACV mCherry inh: i; VACV Venus inh: -15%
Compound: Cc1ccc(NC(=S)NC2CCCC2)c(C)c1
  VACV mCherry inh: -15%; VACV Venus inh: -10%
Compound: CC1CCN(S(=O)(=O)c2ccc3c(c2)CCC(=O)N3CC(=O)Nc2cccc(C#N)c2)CC1
  VACV mCherry inh: -5%[7.34 µM]; VACV Venus inh: -5%[7.34 µM]

Remaining list, next part.
SMILES	VACV mCherry inh	VACV Venus inh
O=C(Cn1ncc2ccsc2c1=O)N1CCN(c2ccc(F)cc2)CC1	-4%	-7%
CC(C)CCC(C)NC(=O)C1CCN(S(=O)(=O)/C=C/c2ccccc2)CC1 (stereo not given)	-12%	8%
CCCCS/C(N)=N/N=C/c1ccccc1O	-26%	-21%
O=C(Nc1cc2c(cc1C(=O)O)OCCCO2)c1ccc(C(F)(F)F)cc1	-1%	-3%
CCc1ccc(Cn2c(CNS(=O)(=O)c3ccc(F)c(Cl)c3)nc3cccnc32)cc1	-6%	-25%
CCOc1ccc(NC(=O)c2cc(OC)nc3ccccc23)cc1	-14%	-25%
COc1ccc(-c2nc3scc(CCNS(=O)(=O)c4ccc5c(c4)OCCO5)n3n2)cc1	-10%	-16%
COc1cccc(CN2CC(C(=O)NCCc3ccc(C)o3)CCC2=O)c1 (stereo not given)	i	-2%
O=C(c1cc2cc(Br)ccc2[nH]1)N1CCc2ccccc21	i	-1%
COc1cccc(OC)c1OCC(O)CN1CCN(c2ccccc2)CC1 (stereo not given)	.	-22%
O=C(/C=C/c1ccco1)NCCc1ccccc1	i	-16%
c1ccc(-c2noc(-c3ccc4c(c3)OCO4)n2)cc1	-6%	-10%
O=C(NC1CCCC1)C1CCCN(C(=O)Nc2ccccc2)C1 (stereo not given)	-8%	4%
COc1ccccc1-c1nc(C(N)=O)c2[nH]c(=O)n(-c3cccc(C)c3)c2n1	.	-24%
COc1ccc(C2CC(c3ccc(Cl)cc3)=NN2C(C)=O)cc1 (stereo not given)	-7%	-14%
CCC(C)NS(=O)(=O)c1ccc(OCC(=O)N2CCC(C)CC2)cc1 (stereo not given)	-12%	-9%
CC(C)C[C@H](NC(=O)c1nc[nH]c1C(=O)NCC(=O)OCc1ccccc1)C(=O)OCc1ccccc1	-13%	2%
Cc1ccc(CN(C(=O)c2ccccc2)c2ccccn2)o1	-14%	-1%
Cc1ccc(CCNC(=O)CCSCc2ccccc2Cl)cc1	-9%	-7%
CCOc1ccc(CN2CCNC(=O)C2CC(=O)N(C)Cc2nonc2C)cc1 (stereo not given)	i	-17%
Cc1c(NC(=O)CSc2ccc(Cl)cc2)cccc1-c1nc2cc(Cl)ccc2o1	-16%	-4%
CC(C)Oc1ccc(CN2CCC2(C)C(=O)Nc2ccc3c(c2)OCO3)cc1 (stereo not given)	9%	-1%
CCOC(=O)C1CCN(C(=O)c2cc(S(=O)(=O)N3CCOCC3)c(Cl)cc2Cl)CC1	.	-13%
CCOc1cc(C(=O)Nc2ccc(-c3nc4ncccc4o3)cc2C)cc(OCC)c1OCC	-16%	-9%
COc1ccccc1NS(=O)(=O)c1cc(NC(=S)Nc2cc(C)cc(C)c2)ccc1Cl	-28%	-15%

Filtered by structure, those above with an aryl thioether with sulfur outside any ring
SMILES	VACV mCherry inh	VACV Venus inh
CCCCn1c(SCC(=O)c2ccccc2)nc2sc3c(c2c1=O)CCCC3	-2%	9%
C=C(C)Cn1c(SCC(=O)Nc2cc(C)ccc2C)nc2sc3c(c2c1=O)CCCC3	-2%	-7%
Cc1occc1-c1nnc(SCC(=O)c2ccc(Cl)cc2)n1C	-13%	-7%
Cc1c(NC(=O)CSc2ccc(Cl)cc2)cccc1-c1nc2cc(Cl)ccc2o1	-16%	-4%

The results go on:
SMILES	VACV mCherry inh	VACV Venus inh
Cc1cc(C)c(NC(=O)c2ncoc2-c2ccco2)c(C)c1	i	3%
CC1Cc2ccccc2N1C(=O)CSc1nnnn1C(C)C (stereo not given)	-12%	-11%
CCn1c(CCNC(=O)c2cccs2)n[nH]c1=S	i	-4%
O=C(Nc1cccc(Cl)c1)c1ccc2sc([C@H]3C[C@H](O)[C@@H](CO)O3)nc2c1	?	?
Cc1cc(C)cc(NC(=O)CSc2nc(=O)n3cc(C)ccc3n2)c1	-5%	-4%
O=C(CSc1nnnn1-c1ccccc1)Nc1nsc(-c2ccc(Cl)cc2)n1	.	-26%
COc1ccc(OC)c(NC(=O)CCN2CCCC(C)C2)c1 (stereo not given)	i	-13%
CCc1ccc(CNC(=O)c2cc3c(s2)-c2ccccc2OC3)cc1	-6%	-6%
Cc1ccc(NC(=S)NC(=O)c2ccc(F)cc2)cc1S(=O)(=O)Nc1ccccc1Cl	?	?
Cc1ccc(CN2C(=O)C(O)(CC(=O)c3ccc(C)cc3)c3ccccc32)cc1 (stereo not given)	-11%	-4%
O=C(NCc1ccccc1)c1ccc2c(c1)N(Cc1ccccc1)C(=O)c1ccccc1S2(=O)=O	-8%	-17%
Cc1nc2ccn(Cc3ccccc3)c(=O)c2cc1C(=O)Nc1ccc(F)cc1Cl	-4%	-1%
COc1ccccc1-c1c(C)nn2c(N3CCN(c4ccccc4)CC3)cc(C)nc12	?	?
CCn1cc(C(=O)OCC(=O)c2ccc(Cl)cc2)c(=O)c2ccc(C)nc21	i	3%
C(=C\c1ccccc1)/CN1CCN(C(c2cccc3ccccc23)c2nnnn2Cc2ccccc2)CC1 (stereo not given)	1%	-7%
N=c1oc2ccccc2cc1-c1nc(-c2ccc(Cl)cc2)cs1	-5%	-1%
CCC(C)OC(=O)/C(C#N)=C/c1ccc(-c2ccc(Br)cc2)o1 (stereo not given)	-4%	5%
CN1CCN(C2Cc3ccc(F)cc3Sc3cc(F)c(Cl)cc32)CC1 (stereo not given)	?	?
CCN(CC)C(=O)[C@H]1C[C@H](CC(=O)NCc2ccco2)C(=O)N2CCc3c([nH]c4ccc(Cl)cc34)[C@]12C	i	-23%
CC1(C(=O)OCC(=O)N2c3ccccc3Sc3ccccc32)CC1(Cl)Cl (stereo not given)	-1%	-5%
OC(CNCc1ccc(Cl)c(Cl)c1)c1ccccc1 (stereo not given)	-8%	6%
COc1ccc(C(CC(=O)c2ccccc2)S(=O)(=O)c2ccccc2)cc1 (stereo not given)	-14%	-8%
O=C(CC(=O)NC1CCCCC1)N/N=C/c1ccc(Cl)cc1	.	-8%
Cc1ccc(NS(=O)(=O)c2cccc(C(=O)NCCCN3CCCC3=O)c2)cc1	-16%	-2%
Cn1c2c(c(=O)n(C)c1=O)C1c3ccccc3OCC1C(C)(C)O2 (stereo not given)	-10%	2%

Next section:
SMILES	VACV mCherry inh	VACV Venus inh
O=C(c1cnn(-c2nccc(-c3ccccc3F)n2)c1C1CC1)N1CCCCC1c1cccnc1 (stereo not given)	?	-28%
O=C(CCN1CCOCC1)c1ccc(Cl)cc1	-18%	-18%
O=C(Nn1cnnc1)c1cccc(S(=O)(=O)N2CCOCC2)c1	11%	0%
Cc1ccc(-n2c(C)cc(C(=O)COC(=O)c3ccc[nH]c3=O)c2C)cc1	-7%	-11%
CCOC(=O)c1cnc(-n2nc(C)cc2C)nc1NC1CCCC1	-14%[7.34 µM]	-16%[7.34 µM]
CC(C)c1cnc2c(c1SCc1cccc(F)c1)c(=O)n(C)c(=O)n2C	-8%	-8%
Cc1cc(C)nc(NC(=NCCc2c[nH]c3ccc(Cl)cc23)NC(=O)c2ccccc2C)n1	-27%	-16%
CC1(c2ccc3c(c2)OCO3)NC(=O)N(CC(=O)c2ccc[nH]2)C1=O (stereo not given)	i	-4%
COc1ccc(Nc2ncc3c(n2)CCN(Cc2ccccc2C)C3)c(OC)c1	-18%	-9%
O=C(CN1C(=O)C2(SCC(=O)N2c2cccc(Cl)c2)c2ccccc21)NCc1ccccc1 (stereo not given)	-22%	-14%

Screening data (PubChem)
